Screens: PubChem, National Center for Advancing Translational Sciences (NCATS)
MARV entry inh: qHTS for inhibitors of binding or entry into cells for Marburg Virus; Marburg virus pseudotyped entry inhibition, cell reporter; control for the full effect not named in the record; about a third of the inactives were read at about 46 µM; Potency, µM (series often up to 37.8 µM), without a hit: at the highest dose activity change, negative = inhibition, actives largely listed as inhibitors; actives 1.8% (n = 300,000); active = well fitted inhibition curve with a large enough effect; inconclusive = small, poorly fitted or top-dose-only effect, or effect the other way; inactive = flat fitted curve, though single readings scatter; tested in HEK293 cells; about a fifth of its hits are not listed in these tables; further: on the % scale 0 is the no-effect control and ±100 the full control effect; luciferase read-out
2A StopGo: High Throughput Screening for Foot and Mouth Disease Virus Antivirals. human cells with a luciferase reporter of 2A StopGo recoding; control for the full effect not named in the record. AID 1159524, 2015. actives 1.2% (n = 410,000). Potency, µM (titrated, usually from 57.9 µM), without a hit: at the top dose signal change, negative = less light; active = well fitted falling curve with a large enough effect; inconclusive = small, poorly fitted or top-dose-only effect; inactive = no such curve, though single readings can be large or run the other way; tested in HEK293T cells; further: on the % scale 0 is the no-effect control and ±100 the full control effect; nearly all actives have a fitted effect of over 45% in size; luciferase light after 4 h
SARS PLpro yeast: qHTS of Yeast-based Assay for SARS-CoV PLP; S. cerevisiae expressing SARS-CoV PLpro, growth rescue; control for the full effect not named in the record; Potency, µM (highest dose often 32.9 µM), for inactives: top-dose activity, positive = growth rescue; actives 0.19% (n = 330,000); active means well fitted rising curve with a large enough effect; inconclusive means small, poorly fitted or top-dose-only effect; inactive means no such curve, though single readings can be large or run the other way; further: 0% is about no effect; nearly all actives have a fitted effect of over 55% in size; growth read by luminescence after 48 h
NS1 function inh: qHTS Assay for Inhibitors of Influenza NS1 Protein Function. Potency, µM (titrated, usually from 46.1 µM), inactives show top-dose activity, positive = more growth. S. cerevisiae slowed by influenza A NS1, growth recovery by OD600. actives 0.4% (n = 270,000). AID 2326, 2010; active means well fitted rising curve with a large enough effect; inconclusive means small, poorly fitted or top-dose-only effect; inactive means no such curve, though single readings can be large or run the other way; further: nearly all actives have a fitted effect of over 50% in size
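Growth recovery, yeast-based: influenza A NS1 expressed in S. cerevisiae causes slow growth, and suppressors are detected by OD600. The parent strain without NS1 is used as positive control.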
RE007 growth inh: qHTS Assay for Inhibitors of the HIV-1 protein Vpr; S. pombe RE007 Vpr strain, BacTiter-Glo ATP luminescence, 24 h; control for the full effect not named in the record; Potency, µM (doses to about 92.2 µM), for inactives: at the top dose activity change, negative = less growth; actives 0.21% (n = 360,000); AID 651644, 2012; active = well fitted falling curve with a large enough effect; inconclusive = small, poorly fitted or top-dose-only effect; inactive = no such curve, though single readings can be large or run the other way;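 further: on the % scale 0 is the no-effect control and ±100 the full control effect; nearly all actives have a fitted effect of over 50% in size; the assay follows cell death caused by Vpr and the record does not say whether a fall means rescue or toxicity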
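Fission yeast strain RE007, carrying one chromosomally integrated HIV-1 vpr copy, was seeded at OD 0.01 in PMG+AL medium with 23 nL pinned compound. After 24 h at 30 °C and 99% humidity, viability was read by BacTiter-Glo luminescence.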
Lassa entry inh: qHTS for Inhibitors of binding or entry into cells for Lassa Virus. Lassa virus pseudotype entry inhibition, cell reporter; control for the full effect not named in the record. Potency, µM (series often up to 37.9 µM), for inactives: at the highest dose activity change, negative = inhibition, usual class: inhibitors. actives 1.2% (n = 300,000). AID 540256, 2011; active means well fitted inhibition curve with a large enough effect; inconclusive means small, poorly fitted or top-dose-only effect, or effect the other way; inactive means flat fitted curve, though single readings scatter; tested in HEK293 cells; further: on the % scale 0 is the no-effect control and ±100 the full control effect; nearly all actives have a fitted effect of over 50% in size; luciferase read-out
Cruzain inh noDet: qHTS Assay for Promiscuous and Specific Inhibitors of Cruzain (without detergent). purified cruzain, Z-FR-AMC fluorescence, no detergent. Cruzipain (Trypanosoma cruzi), P25779. Potency, µM, without a hit: max response, negative = inhibition, actives largely listed as inhibitors. actives 2.3% (n = 200,000). AID 1476, 2009;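 further: plate controls were enzyme without inhibitor for no effect and buffer without enzyme for full effect; nearly all actives have a fitted effect of over 40% in size; top concentration of the series not given in the record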
Target sequence (P25779 123-467 limits assumed): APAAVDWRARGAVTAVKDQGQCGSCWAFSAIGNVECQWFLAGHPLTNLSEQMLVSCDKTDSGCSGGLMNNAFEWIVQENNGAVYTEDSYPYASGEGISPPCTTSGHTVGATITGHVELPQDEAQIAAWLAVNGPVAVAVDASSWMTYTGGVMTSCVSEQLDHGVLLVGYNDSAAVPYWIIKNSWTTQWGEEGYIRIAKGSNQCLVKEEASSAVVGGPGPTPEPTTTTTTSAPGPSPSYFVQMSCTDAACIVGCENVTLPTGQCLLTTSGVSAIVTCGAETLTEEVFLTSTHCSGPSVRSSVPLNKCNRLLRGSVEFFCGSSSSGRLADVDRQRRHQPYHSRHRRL
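Detergent-free condition (0.00005% Triton X-100) in acetate buffer pH 5.5 with DTT. 1.5 nM enzyme and compound were pre-mixed 15 min, then 2 uM Z-FR-AMC substrate added; reaction progress from fluorescence change between first and third reads (60 s).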
Cruzain Triton: qHTS Assay for Promiscuous and Specific Inhibitors of Cruzain (with detergent) | Cruzipain (Trypanosoma cruzi), P25779 | purified cruzain, Z-FR-AMC fluorescence, 0.01% Triton | Potency, µM, for inactives: max response, negative = inhibition, most hits filed as inhibitors | actives 0.43% (n = 200,000) | AID 1478, 2009;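 further: plate controls were neutral wells for no effect and buffer without enzyme for full effect; nearly all actives have a fitted effect of over 40% in size; top concentration of the series not given in the record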
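Compounds were screened in titration against cruzain (1.5 nM) with 0.01% Triton X-100 to counter colloidal aggregation. Activity was the AMC fluorescence increase over 60 s after adding 2 uM Z-FR-AMC at pH 5.5.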
Numbers without * were called inactive; ? = inconclusive; . = no result given; [ ] = dose if it differs, or a comment. Unless noted, the call rests on the fitted dose curve; in most records, active means well fitted curve in the direction sought with a large enough effect; inconclusive means small, poorly fitted or top-dose-only effect, or another doubt; inactive means no such curve, though single readings can be large; an effect the other way counts as inactive or inconclusive. Potency means the concentration at half of the fitted maximal effect. The order is random (roughly 4.6% active in at least one column).

item	smiles	MARV entry inh	2A StopGo	SARS PLpro yeast	NS1 function inh
1	CN(c1ccc(OCC(=O)Nc2nc(-c3ccccc3)cs2)cc1)S(=O)(=O)c1ccc(F)cc1	?	?	1%	19%
2	Clc1ccccc1-c1nn2c(COc3ccccc3)nnc2s1	16%	-10%	-19%	-30%
3	O=C(CN1CCCc2ccccc21)Nc1ccccc1[N+](=O)[O-]	0%	-30%	-1%	.
4	CC(=O)N1N=C(c2cccc([N+](=O)[O-])c2)OC1(C)c1cccs1 (stereo not given)	.	?	-4%	-8%
5	O=C(O)c1cccc(N=Nc2c(O)[nH]c(=O)[nH]c2=O)c1	.	-14%	0%	-3%
6	COc1ccc(-n2nc(C(=O)NCC(=O)N3CCC4(CC3)OCCO4)c3ccccc3c2=O)cc1OC	?	-1%	2%	-1%
7	O=C(NCc1ccccn1)c1ccc2ccccc2n1	23%	14%	-12%	0%
8	NC(=O)c1c(NC(=O)Cn2cc([N+](=O)[O-])cn2)sc2c1CCCC2	3%	-12%	2%	.

item	RE007 growth inh	Lassa entry inh	Cruzain inh noDet	Cruzain Triton
1	17%	-24%	7.9µM*	0.0%
2	-9%	0%	-18%	-6.1%
3	13%	0%	.	.
4	-14%	.	.	.
5	-1%	.	.	.
6	-2%	?	.	.
7	-6%	-2%	-7%	0.2%
8	3%	-1%	.	.

(list continues)
item	smiles	MARV entry inh	2A StopGo	SARS PLpro yeast	NS1 function inh
9	O=S1(=O)c2cccc3cccc(c23)N1Cc1nnc(-c2ccccc2Br)o1	?	?	-20%	2%
10	COc1ccc(C(=O)N2CCN(Cc3cc(=O)n4nc(-c5ccccc5C)sc4n3)CC2)cc1OC	.	7%	.	.
11	Cc1oc(-c2cccs2)nc1CN1CCN(CC(C)C)C(CCO)C1 (stereo not given)	9%[46.1 µM]	33%[activator]	-1%	-1%
12	CN(CC(=O)Nc1cccc(F)c1)CC(=O)Nc1ccccc1Oc1ccccc1	.	-22%	-1%	-6%
13	CCCCCC/C(=N\NS(C)(=O)=O)c1ccccc1	?	-13%	3%	3%
14	COc1ccc(C2(C)NC(=O)N(CC(=O)Nc3ccc(Br)c(C)c3)C2=O)cc1OC (stereo not given)	0%[46.1 µM]	-26%	2%	-4%
15	CCOc1ccc(NC(=O)CN(C)C(=O)C2(c3ccccc3)CC2)cc1OCC	?	-7%	-14%	.
16	COC(=O)c1ccccc1NC(=S)NC(=O)C1CC1	-6%	-6%	29%	3%

item	RE007 growth inh	Lassa entry inh	Cruzain inh noDet	Cruzain Triton
9	0%	-9%	?	0.9%
10	.	-4%[46.1 µM]	-2%	-0.3%
11	-5%	0%[46.1 µM]	.	.
12	6%	.	.	.
13	10%	5%	11%	1.1%
14	1%	.	.	.
15	9%	-16%[46.1 µM]	.	.
16	-1%	-14%	0%	0.8%

Continuation.
item	smiles	MARV entry inh	2A StopGo	SARS PLpro yeast	NS1 function inh
17	COc1ccc(S(=O)(=O)Nc2nc3ccccc3nc2NCC2CCCO2)cc1 (stereo not given)	4%	26%	4%	-3%
18	O=C(CN1C(=O)C2CCCCC2C1=O)Nc1cccc(C(F)(F)F)c1 (stereo not given)	10%	0%	-2%	.
19	COc1ccc(C(=O)NCc2nnc(SCC(=O)Nc3cc(C)cc(C)c3)o2)cc1OC	-3%[46.1 µM]	-9%	5%	-3%
20	CCn1c(Cc2ccc(OC)cc2)nc2ccccc21	?	-1%	-6%	-1%
21	O=C(CN1CCOCC1)Nc1ccc(Br)cc1	?	17%	-1%	-3%
22	COC(=O)Cn1cc(C(=O)C(F)(F)F)c2ccccc21	-3%[46.1 µM]	2%	0%	1%
23	CCOC(=O)c1c(NC(=O)COc2cccc3c2CCN(Cc2ccc(F)cc2)C3=O)sc2c1CCC2	3%	.	-7%	-4%
24	COc1cccc(-c2nc(SCc3cc(=O)c4ccc(C)c(C)c4[nH]3)n[nH]2)c1	.	?	.	.

item	RE007 growth inh	Lassa entry inh	Cruzain inh noDet	Cruzain Triton
17	11%	2%	.	.
18	2%	17%	.	.
19	2%	-3%	9%	3.1%
20	-23%	0%	.	.
21	16%	27%	.	.
22	7%	-5%	.	.
23	.	.	?	-2.8%
24	.	-4%[46.1 µM]	-17%	-4.7%

Part of the list above in order of molecular weight, low to high.
item	smiles	MARV entry inh	2A StopGo	SARS PLpro yeast	NS1 function inh
20	CCn1c(Cc2ccc(OC)cc2)nc2ccccc21	?	-1%	-6%	-1%
21	O=C(CN1CCOCC1)Nc1ccc(Br)cc1	?	17%	-1%	-3%
3	O=C(CN1CCCc2ccccc21)Nc1ccccc1[N+](=O)[O-]	0%	-30%	-1%	.
4	CC(=O)N1N=C(c2cccc([N+](=O)[O-])c2)OC1(C)c1cccs1 (stereo not given)	.	?	-4%	-8%
8	NC(=O)c1c(NC(=O)Cn2cc([N+](=O)[O-])cn2)sc2c1CCCC2	3%	-12%	2%	.
24	COc1cccc(-c2nc(SCc3cc(=O)c4ccc(C)c(C)c4[nH]3)n[nH]2)c1	.	?	.	.
17	COc1ccc(S(=O)(=O)Nc2nc3ccccc3nc2NCC2CCCO2)cc1 (stereo not given)	4%	26%	4%	-3%
9	O=S1(=O)c2cccc3cccc(c23)N1Cc1nnc(-c2ccccc2Br)o1	?	?	-20%	2%
14	COc1ccc(C2(C)NC(=O)N(CC(=O)Nc3ccc(Br)c(C)c3)C2=O)cc1OC (stereo not given)	0%[46.1 µM]	-26%	2%	-4%
6	COc1ccc(-n2nc(C(=O)NCC(=O)N3CCC4(CC3)OCCO4)c3ccccc3c2=O)cc1OC	?	-1%	2%	-1%

item	RE007 growth inh	Lassa entry inh	Cruzain inh noDet	Cruzain Triton
20	-23%	0%	.	.
21	16%	27%	.	.
3	13%	0%	.	.
4	-14%	.	.	.
8	3%	-1%	.	.
24	.	-4%[46.1 µM]	-17%	-4.7%
17	11%	2%	.	.
9	0%	-9%	?	0.9%
14	1%	.	.	.
6	-2%	?	.	.

item	smiles	MARV entry inh	2A StopGo	SARS PLpro yeast	NS1 function inh
23	CCOC(=O)c1c(NC(=O)COc2cccc3c2CCN(Cc2ccc(F)cc2)C3=O)sc2c1CCC2	3%	.	-7%	-4%

item	RE007 growth inh	Lassa entry inh	Cruzain inh noDet	Cruzain Triton
23	.	.	?	-2.8%

Continuation:
item	smiles	MARV entry inh	2A StopGo	SARS PLpro yeast	NS1 function inh
25	Cc1ccc(-c2onc3ccc(Cl)cc23)cc1	?	25%	1%	5%
26	O=C(COC(=O)c1ccc(Cl)c(S(=O)(=O)N2CCCC2)c1)NCc1ccccc1	?	-10%	11%	.
27	COc1ccc(CN(C)C(=O)c2cc(-c3ccc(OC)c(OC)c3)nc3ccccc23)c(OC)c1	.	-20%	-2%	5%
28	CCOC(=O)Nc1cc(N)ncn1	1%	?	.	.
29	O=C(C1=C[C@@H](c2coc3ccccc3c2=O)C[C@@H](OCCCCO)O1)N1CCN(Cc2ccccc2)CC1	.	-25%	-1%	-10%
30	Cc1noc(C(=O)Nc2c(C)n(C)n(-c3ccccc3)c2=O)c1Cl	.	-5%	7%	-2%
31	Cc1ccccc1C1c2[nH]c3ccccc3c2CCN1CCCn1cccn1 (stereo not given)	?	-20%	-1%	11%
32	CCN(CC)CCCN=Cc1c(O)n(Cc2ccccc2)c(=O)c2ccccc12	?	3%	-5%	-10%

item	RE007 growth inh	Lassa entry inh	Cruzain inh noDet	Cruzain Triton
25	19%	-1%	-12%	-3.2%
26	5%	-5%	.	.
27	22%	.	.	.
28	9%	7%[46.1 µM]	.	.
29	6%	.	.	.
30	-5%	.	1%	-2.0%
31	-8%	-26%[46.1 µM]	.	.
32	-21%	?	-7%	4.9%
